Calb FLC: C. albicans growth modulation with fluconazole; C. albicans CaCi-2 (fluconazole-resistant clinical isolate) + fluconazole, Alamar Blue growth, 48 h; growth inhibition, % (test concentration not listed); 300,000 tested, 0.57% active; AID 1979;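 active = most replicates above 75%; inconclusive = exactly half above 75%; inactive = most below 75%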;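 also: all wells also contain fluconazole at 8 µg/ml as a sub-toxic cotreatment; 0% = median of DMSO wells and 100% = median of geldanamycin control wells; wells of about 8 µL received 7.5 nL stock; the first replicate is given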
Beta apoptosis: beta cell apoptosis inhibition; INS-1E cytokine-induced death, ATP luminescence, 48 h; percent of positive-control rescue, neutral wells zero; protection from apoptosis, % (no concentration beside the values); 300,000 tested, 0.8% active;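 active = all replicates at 75% or more, or half of them and the mean; inconclusive = half reach 75% but not the mean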;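 also: 0% = cytokine-treated negative control wells and 100% = positive control rescue; higher means more ATP so stronger rescue from cytokine killing; wells of about 40 µL received 100 nL stock; the first replicate is given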
A1 inh: inhibitors of the anti-apoptotic protein A1, read as caspase activation; caspase activation, % (concentration not given with the values); MEF A1-2A-BIM cells, Caspase-Glo 3/7 luminescence, 3 h; percent of clofoctol response, vehicle zero; 330,000 tested, 0.066% active;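 active = over half of replicate activation scores above 10%, or exactly half above 10 with the replicate mean above 10; inconclusive = replicate mean below 10 yet half the replicates above 10; inactive = over half of replicates below 10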;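 also: wells of about 30 µL received 50 nL stock; many hits fall short of the cut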
LANA-H2B inh: blocks KSHV LANA binding to histone H2A/H2B. cell-free LANA-H2A/H2B peptide, fluorescence polarization. inhibition, % (test concentration not listed). 320,000 tested, 0.6% active; in the data active = inhibition mostly above about 10%, no sharp cut-off; inactive = mostly below about 6.7%;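 also: stock transfer was 7.5 nL into about 10 µL; 0% = median of vehicle wells and 100% = median of positive control wells; one replicate is shown; the record names a cut of 25% in any replicate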
RanGTP-Impb inh: inhibitors of RanGTP-importin-beta interaction, primary screen, biochemical, FRET, CFP-Ran, YFP-importin-beta, homogeneous | cell-free CFP-Ran/YFP-importin-beta FRET ratio | inhibition, % (concentration not given with the values) | AID 2216 | 300,000 tested, 1.1% active;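 active = most replicates above 15%; inconclusive = exactly half above 15%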;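 also: 0% = DMSO wells and 100% = Ran loaded with GDP instead of GTP; wells of about 40 µL received 100 nL stock; the first replicate is given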
Vif TR-FRET: HIV-1 Vif–A3G interaction blockers – biochemical, TR-FRET, GST-Vif 1-94, biotin-A3G peptide, dose response retest, primary screen (AID 1117319); TR-FRET GST-Vif / biotin-A3G peptide binding; higher % means a stronger effect; test concentration not given here; strong numbers were not always called active; inhibition, %; hits with a dose series show IC50 in µM; 260,000 tested, 0.57% active;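 active = above the screen mean plus three standard deviations and confirmed in dose response; inconclusive = results disagree or hit not tested in dose response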;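 also: Vif residues 1-94 fused to GST binding biotinylated APOBEC3G peptide 110-148; 0% = full assay without inhibitor and 100% = GST in place of GST-Vif; retest series ran down from 100 µM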
T cruzi repl: blocks replication of Trypanosoma cruzi | T. cruzi beta-gal in NIH3T3, luminescence, 90 h | inhibition, % (concentration not given with the values) | 300,000 tested, 1.4% active;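 active = mean inhibition across valid replicates above about 55%, limit read from the data; inconclusive = mean below that limit but half or more replicates reach it; inactive = mean below it, under half of replicates reach it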;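 also: signal also drops with host cell toxicity which is not excluded here; 0% = plate median of DMSO wells and 100% = zero luminescence signal; higher percent means less beta-gal luminescence so fewer parasites; stock transfer was 50 nL into about 50 µL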
MLL AF4-AF9 inh: MLL-AF4/AF9 protein interaction inhibition | inhibition, % at 10 µM | 350,000 tested, 0.47% active | AlphaScreen, biotin-AF4 peptide binding to FLAG-AF9 | AID 651704 | P42568;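 active = every replicate reaching a set inhibition limit, whatever the replicate mean, cut at about 25% in these data; inconclusive = mean inhibition reaches that limit but some replicates miss it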;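 also: 0% = plate neutral control median and 100% = total signal loss; the record names both 10 and 1 µM as test concentration; the first replicate is given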
Target sequence (P42568 whole entry, looked up): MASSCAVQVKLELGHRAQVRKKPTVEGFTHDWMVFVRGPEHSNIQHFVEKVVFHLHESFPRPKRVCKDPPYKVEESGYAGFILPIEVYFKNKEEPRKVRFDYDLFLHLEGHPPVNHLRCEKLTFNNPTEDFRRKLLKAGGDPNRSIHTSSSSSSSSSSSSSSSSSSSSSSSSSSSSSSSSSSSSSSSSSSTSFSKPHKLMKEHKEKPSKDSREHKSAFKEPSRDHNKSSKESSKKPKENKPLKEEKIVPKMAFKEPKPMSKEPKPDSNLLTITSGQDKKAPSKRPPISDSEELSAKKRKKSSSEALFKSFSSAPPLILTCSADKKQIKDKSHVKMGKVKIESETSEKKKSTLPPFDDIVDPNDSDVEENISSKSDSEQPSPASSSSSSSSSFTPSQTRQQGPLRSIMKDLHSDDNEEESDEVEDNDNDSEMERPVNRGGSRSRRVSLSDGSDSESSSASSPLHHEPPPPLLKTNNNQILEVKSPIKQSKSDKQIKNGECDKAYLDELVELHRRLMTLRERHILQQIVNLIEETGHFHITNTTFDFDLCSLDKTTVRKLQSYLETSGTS
* marks the source's active call; other numbers are inactive results; ? = inconclusive; · = no result given.

1. COc1cc(NC(=O)CSc2ccc(-c3ccco3)nn2)cc(OC)c1
2. Cc1ccc(NC(=O)Cn2nnc(C(=O)NCc3ccc4c(c3)OCO4)c2N)cc1
3. CC(=O)Oc1c(C)c2c3c(c1OC(C)=O)[C@@H](C)CC[C@@H]3[C@@H](C)C[C@H]2C=C(C)C
4. COCCNC(=O)C(c1ccc(O)cc1)N(Cc1ccco1)C(=O)CCC(=O)Nc1ccccn1 (stereo not given)
5. CCc1ccccc1NC(=O)c1cccc(Oc2ccc([N+](=O)[O-])cc2Cl)c1
6. CNC(=O)/C(C#N)=C/c1c(N(Cc2ccccc2)Cc2ccccc2)nc2c(C)cccn2c1=O
7. CCOC(=O)C1(Cc2ccccc2C)CCCN(C(=O)CN2C(=O)CSC2=O)C1 (stereo not given)
8. O=C1NC(=S)/C(=C\c2ccc(-c3ccccc3Cl)o2)S1
9. COc1ccc(C(=O)N2CCC(n3nnc4cc(F)ccc43)CC2)cc1OC
10. Cc1ccc(Oc2ncccc2N)c2c1CCC2

entry no.	1	2	3	4	5	6	7	8	9	10
Vif TR-FRET	1%	·	·	·	·	·	·	?	·	·
RanGTP-Impb inh	-0.6	5.7	·	?	1.0	1.2	0.5	-0.4	3.0	-3.7
T cruzi repl	-1	-16	·	-8	37	13	-17	-1	-5	0
MLL AF4-AF9 inh	-0.4	1.7	-6.0	-1.9	2.4	·	3.1	·	-0.5	1.1
Calb FLC	0	?	·	40	-18	-3	-2	-7	34	-5
A1 inh	0.7	0.6	1.8	0.1	1.3	1.3	1.0	-2.0	-0.1	1.9
Beta apoptosis	-7	2	-1	0	-2	0	-3	-1	5	-3
LANA-H2B inh	-0.8	-3.2	-0.9	2.3	1.5	0.6	-1.7	0.6	0.8	-4.2

11. CN(CC(=O)Nc1n[nH]c(=S)s1)S(=O)(=O)c1cccc2cccnc12
12. Cc1ccc(CNC(=O)CSc2nc3n[nH]c(C)c3c(=N)n2-c2cccc(C)c2)cc1
13. CCCn1c(SCC(=O)N2CCc3ccccc32)nnc1-c1ccncc1
14. CC(=O)Nc1ccc(Oc2ccc(-c3noc(C)n3)cc2)cc1
15. COC(=O)C1=C(C(=O)OC)[C@@H]2N(Cc3ccccc3)c3ccccc3[C@@]23C[C@@H](C(=O)OC)N(C(=O)c2cccs2)C3=N1
16. COc1cc(/C=N/O)cc(Br)c1OS(=O)(=O)c1ccc(C)cc1
17. COc1ccc(CNC(=O)Nc2cccc(C(F)(F)F)c2)cc1OC
18. Cc1ccc2[nH]c(C(=O)N3CCCCC3)cc2c1
19. CCC(C)NC(=O)CSc1nc2ccc(N3CCOCC3)cc2c(=O)n1CCc1ccccc1 (stereo not given)
20. CC(=O)c1ccc(NC(=O)CCc2nnc3ccc(N4CCC5(CC4)OCCO5)nn23)cc1

entry no.	11	12	13	14	15	16	17	18	19	20
Vif TR-FRET	-10%	-9%	0%	-3%	·	-2%	·	·	?	·
RanGTP-Impb inh	-1.8	?	3.5	7.1	-0.1	-2.3	1.0	-3.6	?	-4.0
T cruzi repl	-7	-1	0	-3	-5	8	-11	-2	-6	3
MLL AF4-AF9 inh	-5.3	·	·	·	3.4	·	·	-2.8	·	-1.4
Calb FLC	-10	33	-6	-3	1	6	-7	-66	4	3
A1 inh	-0.6	-0.5	·	1.0	0.2	-0.5	0.9	-0.4	-0.1	-0.6
Beta apoptosis	1	0	·	0	-5	-11	·	-2	0	-2
LANA-H2B inh	4.3	-3.2	·	-2.6	-5.3	-1.5	-4.9	3.8	1.6	1.4

21. CC(=O)C1(C)N(O)C(C)(C)C(c2ccco2)=[N+]1[O-] (stereo not given)
22. O=C(NCC1CCCO1)/C(=C\c1ccccc1)NC(=O)c1ccccc1 (stereo not given)
23. CC(C)=C1C2CCC1C(C(=O)Nc1sc(C)c(-c3ccc(C(C)C)cc3)c1C(N)=O)C2C(=O)O (stereo not given)
24. COc1ccc(/C=N/Nc2nc(C)cc(-c3ccccc3)n2)c(OC)c1
25. COc1cc(OC)cc(C(=O)Nc2nnc(NC(=S)Nc3ccccc3)s2)c1
26. O=C(O)CCC(=O)Nc1ccc(Sc2ccc([N+](=O)[O-])cc2)cc1
27. CCc1nnc(NC(=O)c2sc3nc(C)cc(COC)c3c2N)s1
28. Cc1ccc(-c2csc3nc4c5ccccc5c(NCCCN5CCOCC5)nn4c(=O)c23)cc1
29. COc1ccc(NC(=O)CSC2CCCCC2)cc1
30. Cc1cc(N/N=C/c2ccc(O)cc2O)nc(-n2nc(C)cc2C)n1

entry no.	21	22	23	24	25	26	27	28	29	30
Vif TR-FRET	5%	4%	4%	-1%	·	·	8%	-5%	-6%	·
RanGTP-Impb inh	-1.2	-0.7	1.4	-0.6	2.8	?	-2.4	3.0	-0.5	6.0
T cruzi repl	-21	2	5	-5	5	-12	5	27	-5	60*
MLL AF4-AF9 inh	·	0.1	-0.1	-0.2	·	3.3	-2.4	·	·	·
Calb FLC	-3	55	6	-1	8	28	4	-6	5	12
A1 inh	0.1	1.7	0.3	0.3	-1.6	-1.5	1.6	1.5	-0.8	-1.5
Beta apoptosis	-12	4	3	-2	10	-1	0	-5	1	99*
LANA-H2B inh	2.1	-5.5	0.8	1.9	4.8	5.2	1.2	1.0	4.3	-1.2

31. O=C(Nc1ccc(C(=O)N2CCCC2)cc1)c1ccccc1[N+](=O)[O-]
32. COc1ccc(CC(=O)Nc2ccc(S(=O)(=O)N(C)C)cc2)cc1OC
33. COc1ccc(-c2cc(-c3ccccc3)c(C#N)c(SCC(=O)Nc3ncc(C)s3)n2)cc1
34. OCCC1CN(CCCc2ccccc2)CCN1Cc1ccc(F)cc1 (stereo not given)
35. COC(=O)c1ccc(CSc2nnc(C)s2)cc1
36. CC(C)CCSc1nc2c(c(=O)[nH]c(=O)n2C)n1CCCc1ccccc1
37. Cc1cnc(C(=O)Nc2nnc(C)s2)cn1
38. COC(=O)C1=C(C)N(c2ccc(Br)cc2)C(=O)/C1=C\c1ccco1
39. O=C(Cc1n[nH]c(=O)c2ccccc12)OCC(=O)c1ccc(F)c(F)c1
40. Cc1cc2nc(C(F)(F)F)cc(-c3cccs3)n2n1

entry no.	31	32	33	34	35	36	37	38	39	40
Vif TR-FRET	0%	10%	-12%	0%	-2%	6%	-5%	·	-13%	-3%
RanGTP-Impb inh	-0.6	-1.1	4.7	-0.4	1.5	-3.7	2.1	5.9	5.7	-1.1
T cruzi repl	6	-11	56*	20	-1	52	-17	15	-13	2
MLL AF4-AF9 inh	-4.6	·	·	5.1	·	-3.9	·	·	-14	0.2
Calb FLC	24	-5	2	-6	-5	2	3	2	-1	8
A1 inh	-0.3	1.7	-1.1	0.0	-0.1	0.1	0.1	0.2	1.1	0.8
Beta apoptosis	·	-3	·	0	-1	3	-5	-12	-1	1
LANA-H2B inh	-1.0	2.8	2.3	5.4	-1.1	-2.6	-3.0	0.2	-3.5	2.6

Whole records, looked up by structure. Screens in order: Vif TR-FRET	RanGTP-Impb inh	T cruzi repl	MLL AF4-AF9 inh	Calb FLC	A1 inh	Beta apoptosis	LANA-H2B inh
COc1ccc(CC(=O)Nc2ccc(S(=O)(=O)N(C)C)cc2)cc1OC as listed: 10%	-1.1	-11	·	-5	1.7	-3	2.8
O=C(Nc1ccc(C(=O)N2CCCC2)cc1)c1ccccc1[N+](=O)[O-] as listed: 0%	-0.6	6	-4.6	24	-0.3	·	-1.0
COc1ccc(-c2cc(-c3ccccc3)c(C#N)c(SCC(=O)Nc3ncc(C)s3)n2)cc1 as listed: -12%	4.7	56*	·	2	-1.1	·	2.3
Cc1cc2nc(C(F)(F)F)cc(-c3cccs3)n2n1 as listed: -3%	-1.1	2	0.2	8	0.8	1	2.6
Cc1cnc(C(=O)Nc2nnc(C)s2)cn1 as listed: -5%	2.1	-17	·	3	0.1	-5	-3.0

(more compounds)
41. CC(NS(=O)(=O)c1ccccc1)C(c1cccs1)N1CCN(C)CC1 (stereo not given)
42. CS(=O)(=O)N(CC(=O)NCC1CCCO1)c1ccc(Cl)c(Cl)c1 (stereo not given)
43. Cc1cccc(NC(=S)NC23CN4CN(CN(C4)C2)C3)c1C
44. Cn1c(=S)ccc2ccccc21
45. O=C(COC(=O)c1cc([N+](=O)[O-])ccc1NCCO)Nc1cccc(S(=O)(=O)N2CCCC2)c1
46. CCOc1ccccc1NC(=S)N1CCN(c2nc(-c3ccc(F)cc3)cs2)CC1
47. O=C(CN1CCOCC1)NCc1ccccc1
48. CNC(=S)N=Nc1c(O)[nH]c2ccc(C(C)C)cc12
49. Cc1ccc(SCC(=O)NCc2ccncc2)cc1
50. CSc1ccccc1NC(=O)c1cc(Cl)sc1Cl

entry no.	41	42	43	44	45	46	47	48	49	50
Vif TR-FRET	30%	27%	·	4%	4%	-54%	-3%	2%	-8%	-2%
RanGTP-Impb inh	-0.1	6.5	-3.9	-2.3	-1.2	0.0	-1.7	-2.2	3.1	-0.4
T cruzi repl	-26	3	6	-22	-4	17	-13	-3	-7	-3
MLL AF4-AF9 inh	·	-9.1	-0.6	3.0	-22	3.9	-10	6.9	1.6	0.5
Calb FLC	-5	1	-1	21	·	-11	-23	10	11	-4
A1 inh	-0.5	0.4	0.5	0.9	-0.9	0.1	-0.3	1.9	0.1	-1.3
Beta apoptosis	·	-5	0	·	4	-3	-1	3	1	-7
LANA-H2B inh	-4.4	2.3	1.0	0.3	1.1	-3.3	-0.9	7.7	1.5	-0.7

51. COC(=O)CSc1nnc(SCc2ccc(OC)cc2)s1
52. CCN(CC)S(=O)(=O)c1ccc(-c2nnc(SCc3nnc(-c4ccc(C)cc4)o3)n2CC)cc1
53. C=CCn1c(SC(C)C(=O)NCCC2=CCCCC2)nc2ccccc2c1=O (stereo not given)
54. CCOC(=O)C1=C(N)Oc2cc(O)ccc2C1c1cccnc1 (stereo not given)
55. CCOc1ccc2nc(NC(=O)c3cc([N+](=O)[O-])ccc3N3CCOCC3)sc2c1
56. COc1ccc(OC)c(NC(=O)c2c3c(nc4ccccc24)CCC3)c1
57. CN(C)c1cccc(C(=O)NCC2CCCO2)c1 (stereo not given)

entry no.	51	52	53	54	55	56	57
Vif TR-FRET	30%	3%	11%	1%	3%	10%	8%
RanGTP-Impb inh	-1.2	-1.4	1.7	5.1	5.0	?	-1.2
T cruzi repl	3	7	21	14	42	-8	20
MLL AF4-AF9 inh	·	·	·	·	5.4	0.5	·
Calb FLC	-24	-8	-6	-31	22	66*	-3
A1 inh	0.0	-0.6	0.2	0.2	0.0	0.2	0.8
Beta apoptosis	-4	2	-5	-4	32	3	-4
LANA-H2B inh	1.5	0.2	4.3	1.2	-2.3	5.6	6.9
